Calb FLC – affects C. albicans growth with fluconazole. C. albicans CaCi-2 (fluconazole-resistant clinical isolate) + fluconazole, Alamar Blue growth, 48 h. growth inhibition, % (no concentration beside the values). actives 0.57% (n = 300,000). AID 1979;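 active means most replicates above 75%; inconclusive means exactly half above 75%; inactive means most below 75%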;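 further: all wells also contain fluconazole at 8 µg/ml as a sub-toxic cotreatment; 0% = median of DMSO wells and 100% = median of geldanamycin control wells; wells of about 8 µL received 7.5 nL stock; the first replicate is given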
HNF4A DNA FP – change in binding of human HNF4 alpha to DNA. HNF4a-FITC DNA binding, fluorescence polarization, 1 h. activity change, % at 10 µM. actives 0.3% (n = 360,000). P41235; in the data active means activity change above about 30%, passing the limit was not always enough;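 further: controls were the assay level and a saturating level of protein; the project sought stronger binding though the title names inhibitors; some compounds called inactive have numbers as strong as hits; positive values seem to mean higher polarization but the record does not say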
Beta2AR agonist – human beta-2 adrenergic receptor agonism by FAP; P07550; Am2.2-beta2AR cells, FAP receptor internalization, flow cytometry; reference of the scale not given here; response, % (no concentration beside the values); actives 0.43% (n = 340,000); AID 504454;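 active means response above a set limit, near 3 SD of response in nonfluorescent compounds, cut at about 42% in these data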;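 further: stock transfer was 100 nL into about 11 µL; a reference agonist was the positive control; negative values mostly stem from fluorescent compounds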
Target sequence (P07550 whole entry, looked up): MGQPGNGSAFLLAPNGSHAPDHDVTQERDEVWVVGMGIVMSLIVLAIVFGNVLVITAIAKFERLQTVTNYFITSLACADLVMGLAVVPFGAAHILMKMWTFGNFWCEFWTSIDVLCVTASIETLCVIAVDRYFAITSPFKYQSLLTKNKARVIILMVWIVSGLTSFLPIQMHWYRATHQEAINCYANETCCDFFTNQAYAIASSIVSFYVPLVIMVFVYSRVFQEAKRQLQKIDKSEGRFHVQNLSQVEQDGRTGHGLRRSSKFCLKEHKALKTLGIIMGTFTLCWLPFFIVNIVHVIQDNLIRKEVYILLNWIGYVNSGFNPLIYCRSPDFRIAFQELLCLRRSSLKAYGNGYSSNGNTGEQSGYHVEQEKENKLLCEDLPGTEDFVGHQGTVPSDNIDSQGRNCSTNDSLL
ALR inh – blocks human ALR sulfhydryl oxidase activity; actives 3.8% (n = 290,000); purified ALR, DTT oxidation, H2O2 HRP-luminol luminescence; AID 485317; inhibition, % (no concentration beside the values); P55789;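 active means mean and each replicate at 75% or more; inconclusive means only one of the two met; inactive means neither met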;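 further: stock transfer was 7.5 nL into about 7.5 µL; 0% = neutral wells and 100% = wells with inactivated enzyme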
Target sequence (P55789 whole entry, looked up): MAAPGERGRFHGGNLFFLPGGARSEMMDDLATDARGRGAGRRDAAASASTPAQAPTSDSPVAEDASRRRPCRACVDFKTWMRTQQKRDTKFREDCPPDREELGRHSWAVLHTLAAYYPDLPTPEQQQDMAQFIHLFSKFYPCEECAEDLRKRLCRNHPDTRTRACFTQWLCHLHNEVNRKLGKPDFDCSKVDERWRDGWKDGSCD
LANA-H2B inh – blocks KSHV LANA binding to histone H2A/H2B | Q9QR71 | cell-free LANA-H2A/H2B peptide, fluorescence polarization | inhibition, % (concentration not given with the values) | actives 0.6% (n = 320,000) | AID 2629; in the data active means inhibition mostly above about 10%, no sharp cut-off; inactive means mostly below about 6.7%;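 further: stock transfer was 7.5 nL into about 10 µL; 0% = median of vehicle wells and 100% = median of positive control wells; one replicate is shown; the record names a cut of 25% in any replicate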
RanGTP-Impb inh – disruptors of Ran-importin-beta complex formation – biochemical, FRET, CFP-Ran, YFP-importin-beta, homogeneous, primary screen; AID 2216; inhibition, % (test concentration not listed); actives 1.1% (n = 300,000); cell-free CFP-Ran/YFP-importin-beta FRET ratio;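 active means most replicates above 15%; inconclusive means exactly half above 15%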;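 further: 0% = DMSO wells and 100% = Ran loaded with GDP instead of GTP; wells of about 40 µL received 100 nL stock; the first replicate is given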
Vif TR-FRET – HIV-1 Vif–A3G interaction blockers – biochemical, TR-FRET, GST-Vif 1-94, biotin-A3G peptide, dose response retest, primary screen (AID 1117319) | TR-FRET GST-Vif / biotin-A3G peptide binding; higher % means a stronger effect; test concentration not given here; strong numbers were not always called active | inhibition, %, or IC50 in µM where a hit was titrated | actives 0.57% (n = 260,000);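 active means above the screen mean plus three standard deviations and confirmed in dose response; inconclusive means results disagree or hit not tested in dose response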;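 further: Vif residues 1-94 fused to GST binding biotinylated APOBEC3G peptide 110-148; 0% = full assay without inhibitor and 100% = GST in place of GST-Vif; retest series ran down from 100 µM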
Starred values were filed as active, the others as inactive; u = inconclusive; x = not tested or not shown.

Field names: A = Calb FLC; B = HNF4A DNA FP; C = Beta2AR agonist; D = ALR inh; E = LANA-H2B inh; F = RanGTP-Impb inh; G = Vif TR-FRET
> O=C(/C=C/c1ccc(Cl)c(Cl)c1)Nc1cccnc1
  A: 6; B: 3.9; C: -1; D: 2; E: -9.5; F: 8.4; G: x

> CN(C)c1nc(N)nc(N(c2ccccc2)c2ccccc2)n1
  A: 1; B: -5.6; C: 5; D: 2; E: 1.5; F: u; G: -4%

> CCCCc1c(O)nc(SCC(=O)N2CCOCC2)n(-c2ccccc2OC)c1=O
  A: -2; B: -2.7; C: 4; D: 2; E: 3.3; F: 0.1; G: -4%

> Cc1cccc(/C=N/n2c(C3CCCCC3)n[nH]c2=S)c1
  A: 23; B: 0.4; C: -2; D: x; E: -5.8; F: 0.7; G: -11%

> CCOC(=O)c1ccc(NC(=O)c2nc[nH]c2C(=O)N2CCc3ccccc3C2)cc1
  A: 3; B: -0.7; C: -1; D: -4; E: 3.1; F: -0.7; G: x

> COCCOC(=O)c1c(NC(=O)CNC2CCCc3ccccc32)sc(C(N)=O)c1C (stereo not given)
  A: -8; B: 3.8; C: 2; D: 2; E: 2.6; F: -2.0; G: -5%

> COc1ccccc1N1CCN(C(=O)c2cccc(NC3=NC4CS(=O)(=O)CC4S3)c2)CC1 (stereo not given)
  A: -1; B: -0.8; C: 6; D: 34; E: 1.2; F: 3.3; G: x

> O=C(N/C(=C\c1ccc(Br)cc1)C(=O)N1CCCC1)c1ccccc1F
  A: 31; B: 3.4; C: 2; D: x; E: 0.9; F: 6.2; G: 19%

> Cc1ccc(NC(=O)C(=O)NCc2ccc(/C=N/NC(=O)c3c(C)nc4ccccn34)o2)cc1
  A: 6; B: 0.9; C: 1; D: 9; E: 3.6; F: -0.3; G: 26%

> COc1ccc(NC(=O)NNC(=O)c2ccc(-c3ccccc3)cc2)c(OC)c1
  A: 8; B: -2.7; C: -5; D: 6; E: -1.4; F: 0.7; G: x

6 of the compounds above, in markdown.
| compound | Calb FLC | HNF4A DNA FP | Beta2AR agonist | ALR inh | LANA-H2B inh | RanGTP-Impb inh | Vif TR-FRET |
| --- | --- | --- | --- | --- | --- | --- | --- |
| Cc1cccc(/C=N/n2c(C3CCCCC3)n[nH]c2=S)c1 | 23 | 0.4 | -2 | x | -5.8 | 0.7 | -11% |
| CCOC(=O)c1ccc(NC(=O)c2nc[nH]c2C(=O)N2CCc3ccccc3C2)cc1 | 3 | -0.7 | -1 | -4 | 3.1 | -0.7 | x |
| COCCOC(=O)c1c(NC(=O)CNC2CCCc3ccccc32)sc(C(N)=O)c1C (stereo not given) | -8 | 3.8 | 2 | 2 | 2.6 | -2.0 | -5% |
| COc1ccccc1N1CCN(C(=O)c2cccc(NC3=NC4CS(=O)(=O)CC4S3)c2)CC1 (stereo not given) | -1 | -0.8 | 6 | 34 | 1.2 | 3.3 | x |
| O=C(N/C(=C\c1ccc(Br)cc1)C(=O)N1CCCC1)c1ccccc1F | 31 | 3.4 | 2 | x | 0.9 | 6.2 | 19% |
| Cc1ccc(NC(=O)C(=O)NCc2ccc(/C=N/NC(=O)c3c(C)nc4ccccn34)o2)cc1 | 6 | 0.9 | 1 | 9 | 3.6 | -0.3 | 26% |

A stretch of the results above, for reference:
Field names: A = Calb FLC; B = HNF4A DNA FP; C = Beta2AR agonist; D = ALR inh; E = LANA-H2B inh; F = RanGTP-Impb inh; G = Vif TR-FRET
> O=C(/C=C/c1ccc(Cl)c(Cl)c1)Nc1cccnc1
  A: 6; B: 3.9; C: -1; D: 2; E: -9.5; F: 8.4; G: x

> CN(C)c1nc(N)nc(N(c2ccccc2)c2ccccc2)n1
  A: 1; B: -5.6; C: 5; D: 2; E: 1.5; F: u; G: -4%

> CCCCc1c(O)nc(SCC(=O)N2CCOCC2)n(-c2ccccc2OC)c1=O
  A: -2; B: -2.7; C: 4; D: 2; E: 3.3; F: 0.1; G: -4%

(cont.)
Field names: A = Calb FLC; B = HNF4A DNA FP; C = Beta2AR agonist; D = ALR inh; E = LANA-H2B inh; F = RanGTP-Impb inh; G = Vif TR-FRET
> CC(C)CN(C(=O)COC(=O)CSc1ccc([N+](=O)[O-])cc1)C1CCS(=O)(=O)C1 (stereo not given)
  A: 4; B: 2.8; C: 5; D: -2; E: 0.2; F: -2.0; G: 6%

> COc1ccc(CN(C)C(=O)C23CC4CC(CC(Cl)(C4)C2)C3)c(OC)c1OC
  A: -5; B: 3.5; C: 1; D: -7; E: -0.7; F: 1.0; G: x

> CCOC(=O)[C@@H]1[C@H]2COc3ccc(Br)cc3[C@H]2N2C(=O)N(c3ccc(Cl)cc3)C(=O)[C@@]12C
  A: 8; B: x; C: x; D: 5; E: 5.8; F: u; G: x

> Cc1cccc(NCc2ccc(Br)cc2)n1
  A: -28; B: 2.7; C: 5; D: -8; E: 3.5; F: -1.7; G: 1%

> c1cncc(C(c2nnnn2C2CCCCC2)N2CCCCC2)c1 (stereo not given)
  A: 4; B: -3.6; C: 8; D: -13; E: -5.3; F: 0.9; G: 3%

> COC(=O)Cc1c(C(=O)OC)nnn1-c1cccc(C(F)(F)F)c1
  A: 10; B: 1.9; C: -4; D: -4; E: 0.1; F: -4.1; G: -4%

> COc1cc(S(=O)(=O)N2CCCCC2)ccc1NC=O
  A: 1; B: 1.1; C: 5; D: x; E: -1.0; F: 0.8; G: 3%

> Cc1nc2ncnn2c(N2CCC(C(=O)NCC3CCCO3)CC2)c1Cc1ccccc1 (stereo not given)
  A: x; B: 0.1; C: 10; D: x; E: 6.9; F: x; G: -5%

> COc1ccc(-n2nc3c(N4CCC(C(=O)NCc5ccccc5)CC4)nnc(C)c3c2C)cc1
  A: -5; B: 5.4; C: -12; D: -7; E: -3.5; F: -2.3; G: x

> Cc1cc(C)c(S(=O)(=O)c2ccccc2)c(OC(=O)c2c(Cl)cccc2Cl)n1
  A: 7; B: 3.6; C: 8; D: -3; E: 1.7; F: 2.1; G: -8%

> COc1cccc(C2c3c(oc4ccc(Cl)cc4c3=O)C(=O)N2c2cc(C)on2)c1OC (stereo not given)
  A: 7; B: 3.5; C: -3; D: -3; E: 1.0; F: 0.4; G: 6%

From PubChem BioAssay
